Yeast UUG start: modulators of yeast start codon fidelity, primary screen, whole organism, S. cerevisiae, single point, plate reader. activity score, % at 18.7 µM. AID 602363, 2012. S. cerevisiae UUG-firefly luciferase reporter, luminescence/redox ratio. hit rate 0.13% among 350,000;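 active = replicate mean at a twofold rise or more, about +100% in these data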;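 also: firefly luciferase made from a UUG start codon reports start codon fidelity; reporter light over untreated wells divided by growth signal over untreated wells; some hits fall short of that in this replicate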
MT1-MMP act inh: blockers of MT1-MMP proenzyme processing, primary screen, HT1080 RFP-PRO-GFP cells, GFP/RFP fluorescence; Matrix metalloproteinase-14 (Homo sapiens), P50281; GFP/RFP ratio fluorescence, overnight; percent of plate control window, DMSO zero; hit rate 0.061% among 360,000; GFP/RFP ratio change, % at 20 µM; AID 651647, 2012;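 active = GFP/RFP ratio change of at least 30% with cell ATP level not reduced by more than half and red fluorescence within 50% of control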; also: strong numbers were not always called active
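Read-out: GFP/RFP fluorescence ratio; Test system: RFP-PRO-GFP reporter HT1080 cells; Compound dosing: single-point 20 µM compound, 1% DMSO; Times: overnight compound exposure at 37 °C.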
MT1-MMP act inh RFP: further read-out of MT1-MMP act inh, marked with its call; RFP signal change, %; measured here: RFP expression control read;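 0 = vehicle wells; hits needed this value within 50% of zero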
* = called active by the depositor; & = joins results of further samples.

For COc1cc2c(=O)[nH]c3cc([N+](=O)[O-])ccc3c2cc1[N+](=O)[O-] the results were Yeast UUG start -13, MT1-MMP act inh 3 and MT1-MMP act inh RFP -1.
CN1OC[C@@H]2CN(C(=O)CCc3ccccc3)[C@H](c3ccccc3Br)C[C@@H]21 was read as Yeast UUG start -3, MT1-MMP act inh 4 and MT1-MMP act inh RFP 0.
`COC(=O)C1CC(O)C(O)C(O)C1` (stereo unspecified) gave Yeast UUG start -28, MT1-MMP act inh -1 and MT1-MMP act inh RFP 1.
Screening CN(CC(=O)Nc1ccc(Cl)cc1)C(=O)CNC(=O)c1cccs1 returned Yeast UUG start -14, MT1-MMP act inh -1 and MT1-MMP act inh RFP 1.
`Fc1cccc(Cc2c(-c3ccco3)nc3ccc(Cl)cn23)c1` gave Yeast UUG start 4, MT1-MMP act inh -4 and MT1-MMP act inh RFP -8.
CSCCC(NC(=O)c1ccc(Cl)cc1Cl)C(=O)N1CCN(C(=O)c2ccccc2)CC1 (stereo unspecified) was read as Yeast UUG start -11, MT1-MMP act inh -2 and MT1-MMP act inh RFP 4.
Screening C[C@@H]1CN([C@@H](C)CO)C(=O)CCCn2nncc2CO[C@@H]1CN(C)S(=O)(=O)c1ccc2c(c1)OCCCO2 returned Yeast UUG start 6&1, MT1-MMP act inh 2 and MT1-MMP act inh RFP 3.
`C=CCOc1ccc(/C=C/C(=O)OCC(=O)N2CCN(S(=O)(=O)c3ccc(C)cc3C)CC2)cc1` gave Yeast UUG start -9, MT1-MMP act inh 5 and MT1-MMP act inh RFP -5.
CC(=O)OCC1=C(C(=O)O)N2C(=O)[C@@H](NC(=O)Cc3ccccc3)[C@H]2SC1 was read as Yeast UUG start 6, MT1-MMP act inh -3 and MT1-MMP act inh RFP 4.
For CCOc1ccc(NC(=O)COc2ccc(C(=O)NCC3CCCO3)cc2OC)cc1 (stereo unspecified) the results were Yeast UUG start -2, MT1-MMP act inh 0 and MT1-MMP act inh RFP 2.
Screening CCCCN(C(=O)c1cc(S(=O)(=O)N2CCOCC2)ccc1F)c1c(N)n(CCCC)c(=O)[nH]c1=O returned Yeast UUG start -7, MT1-MMP act inh -2 and MT1-MMP act inh RFP 5.
For CC(Sc1nnc(-c2ccncc2)n1C)C(=O)Nc1ccc(N2CCOCC2)cc1 (stereo unspecified) the results were Yeast UUG start -16, MT1-MMP act inh 9 and MT1-MMP act inh RFP 5.
O=C(COC(=O)CCC(=O)c1cccs1)Nc1cccc(F)c1 was read as Yeast UUG start -7, MT1-MMP act inh -3 and MT1-MMP act inh RFP 3.
`C[C@H]1CN([C@@H](C)CO)C(=O)Cc2cc(NS(C)(=O)=O)ccc2O[C@@H]1CN(C)Cc1ccc(Cl)c(Cl)c1` gave Yeast UUG start 9&-4, MT1-MMP act inh -4 and MT1-MMP act inh RFP -5.
For CCCS(=O)(=O)Nc1ccc(N2CCCCC2)c(S(=O)(=O)Nc2ccccc2OC)c1 the results were Yeast UUG start -9, MT1-MMP act inh 1 and MT1-MMP act inh RFP -7.
COc1ccc(C(=O)C(C)C(C)=O)c(OCc2ccccc2)c1OC (stereo unspecified) was read as Yeast UUG start -14, MT1-MMP act inh -1 and MT1-MMP act inh RFP -1.
Screening Cc1ccc2sc(C)cc(=O)c2c1 returned Yeast UUG start -19, MT1-MMP act inh -3 and MT1-MMP act inh RFP -2.
COc1ccc(NC(=O)COC(=O)c2cc(C)oc2C)c([N+](=O)[O-])c1 was read as Yeast UUG start -8, MT1-MMP act inh 9 and MT1-MMP act inh RFP 2.
Screening COc1ccc(C(=O)N2CCCCC2c2cc(C(=O)Nc3ccc(F)c(Cl)c3)no2)cc1 (stereo unspecified) returned Yeast UUG start -24, MT1-MMP act inh -2 and MT1-MMP act inh RFP -11.
`O=C(NCC1CCCCC1)c1cccc(S(=O)(=O)N2CCCC2)c1` gave Yeast UUG start -14, MT1-MMP act inh -1 and MT1-MMP act inh RFP -4.
N#Cc1ccc(OCC(=O)NCCCN2CCCC2=O)cc1 was read as Yeast UUG start -15, MT1-MMP act inh 0 and MT1-MMP act inh RFP 4.
`CN1C(=O)[C@H]2[C@@H](c3ccc(C(F)(F)F)cc3)N[C@]3(CCCN(Cc4ccc(Br)cc4)C3=O)[C@H]2C1=O` gave Yeast UUG start 17, MT1-MMP act inh 13 and MT1-MMP act inh RFP -12.
Screening CC(=O)Nc1cc2c(cc1Cl)-c1ccc(F)cc1C2O (stereo unspecified) returned Yeast UUG start -8, MT1-MMP act inh 3 and MT1-MMP act inh RFP 0.
NC(c1csc(Nc2ccc(C(=O)NCCO)cc2)n1)C1CCCCC1 (stereo unspecified) was read as Yeast UUG start -10, MT1-MMP act inh -3 and MT1-MMP act inh RFP -5.
COc1ccc(CCN2CC(C(=O)OCC(=O)NC(Cc3ccccc3)C(C)=O)CC2=O)cc1OC (stereo unspecified) was read as Yeast UUG start 5, MT1-MMP act inh 3 and MT1-MMP act inh RFP 2.
For Cc1cc(NC(=O)CSc2nnc(-c3ccccc3F)n2C)no1 the results were Yeast UUG start -24, MT1-MMP act inh -1 and MT1-MMP act inh RFP 4.
Screening O=C(CNS(=O)(=O)c1ccc(Cl)c(C(F)(F)F)c1)NC1CCCCCC1 returned Yeast UUG start -11, MT1-MMP act inh -3 and MT1-MMP act inh RFP -1.
For Cc1ccc([C@@H]2CC(=O)[C@@H]3CN(S(=O)(=O)c4ccccc4C)[C@H](c4ccc(Cl)cc4)C[C@@H]3N2S(=O)(=O)c2ccc(C)cc2)cc1 the results were Yeast UUG start -23, MT1-MMP act inh 0 and MT1-MMP act inh RFP -21.
`Cc1ccc(Cc2c(-c3ccco3)nc3ccc(Cl)cn23)cc1` gave Yeast UUG start -8, MT1-MMP act inh -5 and MT1-MMP act inh RFP -2.
`COc1cc(Cn2c3ccc(NC(=O)CC(C)(C)C)cc3c(=O)n2C)ccc1F` gave Yeast UUG start -6, MT1-MMP act inh 0 and MT1-MMP act inh RFP -4.
Screening CC(=O)Nc1ncc(Sc2ccc([N+](=O)[O-])cc2)s1 returned Yeast UUG start -1, MT1-MMP act inh 9 and MT1-MMP act inh RFP 2.
Screening COCCN(C(=O)COC(=O)c1ccc(-c2ccccc2)cc1)c1c(N)n(Cc2ccccc2)c(=O)[nH]c1=O returned Yeast UUG start -3, MT1-MMP act inh -5 and MT1-MMP act inh RFP -4.
Screening Nc1cc2c(cc1Cl)-c1ccc(Cl)cc1C2 returned Yeast UUG start -25, MT1-MMP act inh -2 and MT1-MMP act inh RFP 2.
For CCOC(=O)C1=C(C2=CCCCC2)c2ccc(OC)cc2N(S(=O)(=O)C(F)(F)F)C1C(=O)OCC (stereo unspecified) the results were Yeast UUG start -4, MT1-MMP act inh 0 and MT1-MMP act inh RFP 1.
For COc1ccc(CC(=O)OCC(=O)N2CCN(S(=O)(=O)c3ccc(C)cc3C)CC2)cc1 the results were Yeast UUG start 0, MT1-MMP act inh 0 and MT1-MMP act inh RFP -1.
For O=C(O)c1ccc(OS(=O)(=O)c2ccc(Cl)s2)c(Cl)c1 the results were Yeast UUG start -14, MT1-MMP act inh 3 and MT1-MMP act inh RFP 0.
For N#Cc1ccc(CCc2ccccc2)[nH]c1=O the results were Yeast UUG start -13, MT1-MMP act inh 4 and MT1-MMP act inh RFP 6.
Screening CN(CC(=O)Nc1ccccc1C(=O)NC1CC1)Cc1ccc(N(C)C)cc1 returned Yeast UUG start -15, MT1-MMP act inh 1 and MT1-MMP act inh RFP -1.
Cc1cccc(NC(=O)Nc2nnc([C@H]3C[C@H](O)[C@@H](CO)O3)s2)c1 was read as Yeast UUG start -21, MT1-MMP act inh -4 and MT1-MMP act inh RFP 0.
`O=C1C(=Cc2ccco2)CCC1=Cc1ccco1` gave Yeast UUG start -19, MT1-MMP act inh 1 and MT1-MMP act inh RFP 0.

In the list so far, these have four or more nitrogen atoms:
Screening C[C@@H]1CN([C@@H](C)CO)C(=O)CCCn2nncc2CO[C@@H]1CN(C)S(=O)(=O)c1ccc2c(c1)OCCCO2 returned Yeast UUG start 6&1, MT1-MMP act inh 2 and MT1-MMP act inh RFP 3.
Screening CCCCN(C(=O)c1cc(S(=O)(=O)N2CCOCC2)ccc1F)c1c(N)n(CCCC)c(=O)[nH]c1=O returned Yeast UUG start -7, MT1-MMP act inh -2 and MT1-MMP act inh RFP 5.
For CC(Sc1nnc(-c2ccncc2)n1C)C(=O)Nc1ccc(N2CCOCC2)cc1 (stereo unspecified) the results were Yeast UUG start -16, MT1-MMP act inh 9 and MT1-MMP act inh RFP 5.
NC(c1csc(Nc2ccc(C(=O)NCCO)cc2)n1)C1CCCCC1 (stereo unspecified) was read as Yeast UUG start -10, MT1-MMP act inh -3 and MT1-MMP act inh RFP -5.
For Cc1cc(NC(=O)CSc2nnc(-c3ccccc3F)n2C)no1 the results were Yeast UUG start -24, MT1-MMP act inh -1 and MT1-MMP act inh RFP 4.
Screening COCCN(C(=O)COC(=O)c1ccc(-c2ccccc2)cc1)c1c(N)n(Cc2ccccc2)c(=O)[nH]c1=O returned Yeast UUG start -3, MT1-MMP act inh -5 and MT1-MMP act inh RFP -4.
Screening CN(CC(=O)Nc1ccccc1C(=O)NC1CC1)Cc1ccc(N(C)C)cc1 returned Yeast UUG start -15, MT1-MMP act inh 1 and MT1-MMP act inh RFP -1.
Cc1cccc(NC(=O)Nc2nnc([C@H]3C[C@H](O)[C@@H](CO)O3)s2)c1 was read as Yeast UUG start -21, MT1-MMP act inh -4 and MT1-MMP act inh RFP 0.

(list continues)
COc1ccc(NS(=O)(=O)c2cc(NC(=O)c3ccc(=O)[nH]c3)ccc2C)cc1 was read as Yeast UUG start -13, MT1-MMP act inh 4 and MT1-MMP act inh RFP -4.
Nc1nc(-c2ccc(S(=O)(=O)N3CCCCC3)cc2)cs1 was read as Yeast UUG start 14, MT1-MMP act inh -6 and MT1-MMP act inh RFP -15.
`C[C@@H]1CN([C@@H](C)CO)C(=O)CCCn2nncc2CO[C@H]1CN(C)S(=O)(=O)c1ccc(-n2cccn2)cc1` gave Yeast UUG start 11&9, MT1-MMP act inh 0 and MT1-MMP act inh RFP 1.
For CCOc1ccc(NC(=O)C(C)NC(=O)c2ccccc2Cl)cc1S(=O)(=O)N1CCCC1 (stereo unspecified) the results were Yeast UUG start 37, MT1-MMP act inh -2 and MT1-MMP act inh RFP -2.
For COC(=O)C1=C(C)NC(=S)NC1c1ccc(OCC(=O)N2CC(C)OC(C)C2)c(OC)c1 (stereo unspecified) the results were Yeast UUG start -10, MT1-MMP act inh -1 and MT1-MMP act inh RFP 1.
O=C(NCc1ccccc1CN1CCCC1)c1cccc(S(=O)(=O)N2CCOCC2)c1 was read as Yeast UUG start -19, MT1-MMP act inh 0 and MT1-MMP act inh RFP -1.
`CN(Cc1ccccc1)c1ncnc2[nH]ncc12` gave Yeast UUG start -8, MT1-MMP act inh 5 and MT1-MMP act inh RFP -9.
Screening CCC(=O)c1ccc(OCC(=O)N2CCN(S(=O)(=O)c3ccc(Cl)s3)CC2)cc1 returned Yeast UUG start -10, MT1-MMP act inh -4 and MT1-MMP act inh RFP -9.
For Cc1cccn2c(=S)[nH]nc12 the results were Yeast UUG start 2, MT1-MMP act inh 3 and MT1-MMP act inh RFP 2.
Cc1cc(NC(=O)COC(=O)c2ccc([N+](=O)[O-])cc2Cl)no1 was read as Yeast UUG start -7, MT1-MMP act inh -4 and MT1-MMP act inh RFP 0.
`COc1ccc(CSc2n[nH]c(=O)[nH]c2=O)cc1` gave Yeast UUG start -6, MT1-MMP act inh 5 and MT1-MMP act inh RFP -3.
`N#Cc1cnn(-c2ccccc2)c1NC(=O)c1ccccc1F` gave Yeast UUG start -14, MT1-MMP act inh -5 and MT1-MMP act inh RFP 1.
`C=C1[C@@H](CCO)N(S(=O)(=O)C(C)(C)C)C[C@@H]1C` gave Yeast UUG start 1, MT1-MMP act inh 0 and MT1-MMP act inh RFP 3.
For O=C(COC(=O)CN1C(=O)c2ccccc2C1=O)Nc1cccc(F)c1 the results were Yeast UUG start -15, MT1-MMP act inh 1 and MT1-MMP act inh RFP -1.
Screening CS(=O)(=O)c1ccc(NC(=O)C2CCCN(C(=O)c3ccc(Cl)cc3)C2)cc1 (stereo unspecified) returned Yeast UUG start -12, MT1-MMP act inh -2 and MT1-MMP act inh RFP -2.
`Cc1cc(C(=O)COc2ccc(Br)cc2F)c(C)n1C1CC1` gave Yeast UUG start -2, MT1-MMP act inh -3 and MT1-MMP act inh RFP -20.
`CC(C)(C)S(=O)N1Cc2cc(C(=O)N3CCc4ccccc4C3)nc(-c3cccc(-c4ccncc4)c3)c2[C@H]1CCO` (stereo partly specified) gave Yeast UUG start -23, MT1-MMP act inh -7 and MT1-MMP act inh RFP -1.
Screening COc1cc(O)c2c(=O)c3c(O)ccc(O)c3oc2c1 returned Yeast UUG start 52, MT1-MMP act inh -1 and MT1-MMP act inh RFP -8.
For CC(C)CNC(=O)c1cccc2c(-c3ccc(F)c(F)c3)coc12 the results were Yeast UUG start -7, MT1-MMP act inh 1 and MT1-MMP act inh RFP 1.
COCCN(C(=O)COC(=O)CNC(=O)c1ccc(C)cc1)c1c(N)n(Cc2ccccc2)c(=O)[nH]c1=O was read as Yeast UUG start -5, MT1-MMP act inh -4 and MT1-MMP act inh RFP 3.
COc1cccc(NC(=O)COC(=O)c2c(C)nn(-c3ccccc3)c2C)c1 was read as Yeast UUG start -8, MT1-MMP act inh -3 and MT1-MMP act inh RFP -3.
`O=C(NCc1ccccc1Cl)c1[nH]c(C(F)(F)F)nc1-c1ccccc1` gave Yeast UUG start -5, MT1-MMP act inh -3 and MT1-MMP act inh RFP -8.

High-throughput results (PubChem)

Not all compounds are listed (hit frequency here may not be typical).
